CapD inh = blocks the Bacillus anthracis CapD enzyme | purified CapD enzyme, fluorescence intensity read-out; active compounds read low; some hits fall short of the stated cut | z-score (no concentration beside the values) | actives 0.23% (n = 140,000);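 active = z-score under -4 in either of two replicates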;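 also: stock transfer was 100 nL into about 40 µL; score is relative to mean and spread of the plate; one replicate is shown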
AID504770 = E. coli YBA685 growth inhibition, screen for V. cholerae RctB inhibitors. z-score (no concentration beside the values). actives 0.27% (n = 130,000). E. coli YBA685 rctB-dependent plasmid, OD600 growth, 3 h; active compounds read low. AID 504770;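 active = z-score under -2 on both plates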;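 also: wells of about 30 µL received 100 nL stock; score is relative to mean and SD of the test wells; the first replicate is given; strong numbers were not always called active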
Numbers without * were called inactive; nt = not tested or not shown. A portion of the library; rates above refer to the full screens.

SMILES	CapD inh	AID504770
COc1cc(C2C(C#N)=C(N)Oc3n[nH]c(C)c32)ccc1OC(=O)N1CCOCC1 (centres undefined)	-1.6	nt
O=C(Nc1ccc2c(c1)OCO2)c1cccn(OCc2ccccc2F)c1=O	nt	0.75
CCOC(=O)c1ccc(-c2ccc(/C=C3\SC(=NC)N(C)C3=O)o2)cc1	9.1	nt
NC(=O)NC(=O)CSC1CCCC1	nt	0.2
CCOc1ccccc1CN(CCc1ccc2c(c1)OCO2)Cc1ccccn1	nt	-0.5
Cc1cc(Nc2ccc(Cl)cc2)n(-c2ccccc2)n1	nt	-0.25
O=C(O)CSc1ccc(-c2ccccc2)nn1	-0.47	-0.2
COc1ccc(-c2c(C)oc3ccc(C)cc23)cc1	-0.09	-0.65
Cc1ccc2cc(C(N)=O)c(=N)oc2c1	-0.9	-0.3
COc1ccc(C(O)(C(=O)NN(C(=O)c2ccccc2)c2cccc(C)c2)c2ccc(OC)cc2)cc1	0.14	nt
Cn1cccc1CN1CCS(=O)(=O)CC1	-0.29	-0.3
Cc1cc(Br)cc2c(N=NC(N)=O)c(O)n(C)c12	-0.19	-0.25
COc1ccc(NC(=O)Cn2cc(C#N)c3ccccc32)cc1	nt	0.15
Cc1cn[nH]c1-c1cccs1	-0.82	nt
COc1ccc(OC)c(S(=O)(=O)N2CCCC2C(=O)NC(C)c2ccccc2)c1 (centres undefined)	nt	1.3
Cc1cc(S(=O)(=O)Oc2ccc(Oc3ccccc3)cc2)c(Cl)cc1Cl	-0.4	nt
CCOC(=O)c1c(NC(=O)C(C)Sc2nnc(CNC(=O)c3ccc([N+](=O)[O-])cc3)n2C)sc2c1CCCCC2 (centres undefined)	-0.35	nt
O=C(NCCCN1CCOCC1)c1ccc2c(=O)n(-c3cccc(C(F)(F)F)c3)c(=S)[nH]c2c1	1.3	nt
O=C(Nc1cccc(C(F)(F)F)c1)C1CC2CCCC(C1)C2=O (centres undefined)	nt	-0.15
Cc1ccc(Sc2c(N)c3c(c(N)c2Sc2ccc(C)cc2)C(=O)c2ccccc2C3=O)cc1	0.14	nt
Cc1ccc(C(=O)Nn2cnc3scc(-c4cccs4)c3c2=O)c(O)c1	nt	-0.4
CN(C(=O)CCN1C(=O)c2ccccc2C1=O)C1CCCCC1	-0.44	nt
O=C(CSc1ncnc2sc3c(c12)CCCC3)c1ccco1	0.15	-0.2
CC(=O)NC1=NC(=O)CN1C	0.21	nt
COc1ccc(-c2c(C(F)(F)F)oc3cc(OC(=O)c4ccncc4)ccc3c2=O)cc1OC	-0.56	nt

An excerpt from above in order of number of heavy atoms, smallest number first:
SMILES	CapD inh	AID504770
NC(=O)NC(=O)CSC1CCCC1	nt	0.2
COc1ccc(NC(=O)Cn2cc(C#N)c3ccccc32)cc1	nt	0.15
CCOC(=O)c1c(NC(=O)C(C)Sc2nnc(CNC(=O)c3ccc([N+](=O)[O-])cc3)n2C)sc2c1CCCCC2 (centres undefined)	-0.35	nt

The list continues.
SMILES	CapD inh	AID504770
COC(=O)COc1c(Br)cc(Br)cc1C(=O)OC	-0.21	nt
CC(C)N1CCC(n2nnc3ccccc32)CC1	-0.07	0.3
O=C(O)C1c2cccn2-c2ccccc2CN1C1CCNCC1 (centres undefined)	-0.2	nt
CCOC(=O)N1CCC(NCC2C(Oc3ccc(Cl)cc3)C(=O)N2c2ccccc2C)CC1 (centres undefined)	-0.38	0.9
CCOC(=O)NNC(=O)c1ccc2n[nH]nc2c1	-0.43	nt
CC1(C)CC2CC(C)(CN2C(=O)c2cccs2)C1 (centres undefined)	nt	-0.45
O=C(NC(=O)c1c(Cl)cccc1Cl)Nc1nc2cc(F)ccc2s1	-0.33	-0.8
CC1CN(CC(=O)Nc2ccc(C#N)cc2)CC(C)O1 (centres undefined)	nt	0.05
CN1CCN(c2nc3ccccc3nc2C(C#N)S(=O)(=O)c2ccccc2)CC1 (centres undefined)	nt	1.2
COC(=O)C1CCN(c2c(N)n(Cc3ccccc3)c(=O)[nH]c2=O)CC1	nt	-0.1
CSc1nnc(CNC(=O)c2ccc(C(C)C)cc2)n1C(C)C	nt	-0.7
O=C(O)c1c(-n2cccc2)sc2c1CCSC2	nt	-0.6
O=C(Cc1csc(-c2ccsc2)n1)Nc1cccc(C(=O)NC2CC2)c1	nt	1.8
CCCC1C(c2ccccc2)NC(c2ccccc2)CC1(O)c1ccc(F)cc1 (centres undefined)	-0.35	nt
CCCOc1ccc(CSC(=N)N)cc1Br	0.09	-1.2
O=C(OCc1ccccc1)N1CCOCCOCCOCC1	nt	1.7
COCC(C)n1cccc1 (centres undefined)	nt	0.45
O=C1NC(=O)C(Cc2ccccc2)C(=O)N1	-0.21	-0.85
O=[N+]([O-])c1cccc(-c2nc(-c3ccc(Oc4ccccc4)cc3)c(-c3ccc(Oc4ccccc4)cc3)[nH]2)c1	0.32	nt
Cc1cc(I)ccc1N1C(=O)C2C3c4ccccc4C(CO)(c4ccccc43)C2C1=O (centres undefined)	0.26	nt
Cc1ccc(N2CC(NC(=O)NCCCc3ccccc3)CC2=O)cc1 (centres undefined)	nt	0.15
COc1cc(C(=O)Nc2ccccc2C(=O)NCc2cccnc2)cc(OC)c1OC	nt	-0.1
O=C1CN(C(=O)c2ccco2)C(c2ccccc2)c2cc(Br)ccc2N1 (centres undefined)	0.2	1.1
O=C(c1ccc[nH]c1=S)N1CCC(Cc2ccccc2)CC1	-0.69	nt
Cc1ccc(-c2nnc(SCC(=O)NC(=O)CN3CCCC3=O)o2)cc1C	nt	-1.4

Quoted from the entries so far (four entries):
SMILES	CapD inh	AID504770
COc1cc(C(=O)Nc2ccccc2C(=O)NCc2cccnc2)cc(OC)c1OC	nt	-0.1
O=C1CN(C(=O)c2ccco2)C(c2ccccc2)c2cc(Br)ccc2N1 (centres undefined)	0.2	1.1
O=C(c1ccc[nH]c1=S)N1CCC(Cc2ccccc2)CC1	-0.69	nt
Cc1ccc(-c2nnc(SCC(=O)NC(=O)CN3CCCC3=O)o2)cc1C	nt	-1.4

Next part.
SMILES	CapD inh	AID504770
O=C(Cn1c2ccccc2c2nc3ccccc3nc21)c1ccccc1	-0.87	nt
Cc1ccc(-n2nc3c(c2NC(=O)C(C)C)CS(=O)(=O)C3)cc1	0.7	0.7
O=C(CCn1c(=O)c2cccn2c2cccnc21)NC1CCCc2ccccc21 (centres undefined)	-0.17	1.1
COc1ccc(-n2c(C)cc(C(=O)COC(=O)c3ccc(O)cc3O)c2C)cc1	nt	0.6
CC(C)(C)OC(=O)C(CC(N)=O)NC(=O)CC1Cc2ccccc2C1 (centres undefined)	0.67	nt
COc1ccc(C2(C(=O)NCC3(c4ccccc4)CCCOC3)CCOCC2)cc1OC (centres undefined)	0.6	nt
COc1cccc(N(C)S(=O)(=O)c2ccc(C)c(C)c2)n1	nt	-0.7
Cc1ccc(-n2c(-c3ccc(Br)cc3)cn3c4c(=O)n(C)c(=O)n(C)c4nc23)cc1C	-0.18	nt
O=S1(=O)Nc2c(Cl)cccc2-c2ccccc21	40	nt
CC(C)[C@H](NC(=O)c1ccco1)C(=O)NC1CC1	nt	-0.4
Cc1ccccc1-n1c(O)c(C=NC(C)(CO)CO)c(=O)n(-c2ccccc2C)c1=S	-1.5	nt
O=C(O)c1[nH]c2ccccc2c1CNC1CCCC1	13	1.1
CC1=NN(C(=O)c2cccc([N+](=O)[O-])c2)C(O)(c2ccc(Cl)cc2)C1 (centres undefined)	-1.4	nt
N#Cc1c(/N=C\c2ccc(O)cc2O)sc2c1CCCC2	-1.3	-0.45
CCOc1ccccc1N/C(SCc1cccc(F)c1)=C(/C#N)C(=O)NCCc1ccc(OC)c(OC)c1	0.16	nt
Cc1cccc(Oc2cc(C)nc3ccc(C)cc23)c1	-0.14	-0.85
c1ccc2sc(NC3=NCN(C4CCCCCC4)CN3)nc2c1	0.55	-0.3
COc1cccc(C2=NS(=O)(=O)N(C)C(C(=O)NCCN3CCOCC3)=C2)c1	-1.4	-0.1
O=C(CCc1ccccc1)N1CCCN(C(=O)CCc2ccccc2)CC1	1	0.25
COC(=O)c1[nH]c(CN2NS(=O)(=O)c3ccccc3C2=O)c(C(=O)OC)c1C	nt	-0.6
Cc1ccc(-n2c(SCC(=O)c3cn(CCC#N)c4ccccc34)nnc2-c2ccccc2)cc1C	nt	0.45
CC1CC(C)CN(S(=O)(=O)c2ccc(C(=O)Nc3nc4ccc(Br)cc4s3)cc2)C1 (centres undefined)	0.14	nt
O=S1(=O)CCN2C=CSC2=N1	nt	0.7
CC1CN(C(C)(C)C)CCC1(O)c1ccccc1 (centres undefined)	nt	0.9
O=C(CSc1nc2cc(C(=O)NCC3CCCO3)ccc2c(=O)n1CC1CCCO1)c1ccc(F)cc1 (centres undefined)	-0.45	nt
(next part)
SMILES	CapD inh	AID504770
CSc1nnc2n1CCCN2	1.8	-0.85
CCN(CC)CCOc1cc2c(cc1Cl)-c1cc(Cl)c(OCCN(CC)CC)cc1C2=NNC(N)=S	-0.03	nt
COc1ccccc1C1CCN(S(=O)(=O)c2cc(Br)ccc2Br)CC1	-0.04	nt
COC(=O)c1ccc2c(=O)n(CC3CCCO3)c(SCC(=O)Nc3ccc(C)c(Cl)c3)nc2c1 (centres undefined)	3.1	-0.05
Cc1ccc(NC(=O)c2c(-n3c(C)cc(C=NO)c3C)sc3c2CCCC3)cc1	0.52	0.5
CN(CC(O)COCc1ccc2c(c1)OCO2)C1CCCCC1 (centres undefined)	-0.15	0.2
OCCN(C=NC1=NN(c2ccccc2)CC1)CCO	-3.1	-1.2
CCOC(=O)C1=C(C)NC(=O)C1CC(=O)O (centres undefined)	nt	0.1
Cn1c(=O)c2ccccc2n(CC(=O)Nc2ccc3c(c2)OCO3)c1=O	nt	-0.65
O=C(NCCCN1CCN(c2ccccc2F)CC1)C1CCC(=O)N1C1CCCC1 (centres undefined)	-0.39	-0.55
C(=C\c1ccccc1)/CSc1nc2ccccc2o1	0.18	0.3
CCC(CC)C(=O)OCc1ccc(C#N)cc1	0.49	1.9
O=c1[nH]ncc(N2CCCC2)c1Cl	-0.48	-0.25
Cc1ccccc1Nc1c(-c2ccc(N(C)C)cc2)nc2ccccn12	71	0.05
O=S(=O)(Cc1ccccc1)Nc1nc2ccccc2s1	0.04	0.1
Cc1c(NC(=O)CCCN2C(=O)/C(=C\c3ccco3)SC2=S)c(=O)n(-c2ccccc2)n1C	nt	-0.1
CCC1C(=O)N=C(SCC(=O)Nc2nc3ccccc3s2)NC1=O (centres undefined)	-0.61	nt
CCOC(=O)C1CCN(S(=O)(=O)Cc2ccc(Cl)cc2)CC1	0.76	-0.35
Clc1ccccc1CN1C2=NCCN2c2ccccc21	-0.49	nt
O=C(C1CC1)N1CCc2sccc2C1c1ccc(Cl)cc1 (centres undefined)	0.26	-0.25
COc1ccc(C(=O)N2CC(=O)Nc3ccccc32)cc1	8.9	-1.2
CC(=NCCN1CCOCC1)C1=C(O)c2ccccc2C1=O	-3	1.5
Cc1ccc(C(=O)CC(c2cccs2)S(=O)(=O)c2ccccc2)cc1 (centres undefined)	-0.33	0.65
Clc1ccc(-c2cnc(N3CCN(C(c4ccccc4)c4ccccc4)CC3)nc2)cc1	-0.27	nt
O=c1c2ccccc2ncn1CCOc1ccc(CO)cc1	-0.08	-1.1

Look-ups from above.
Result of Cn1c(=O)c2ccccc2n(CC(=O)Nc2ccc3c(c2)OCO3)c1=O in AID504770: -0.65
Result of CSc1nnc2n1CCCN2 in AID504770: -0.85
Result of O=C(C1CC1)N1CCc2sccc2C1c1ccc(Cl)cc1 (centres undefined) in CapD inh: 0.26

The listing picks up with the six entries that preceded the break.
SMILES	CapD inh	AID504770
O=C(C1CC1)N1CCc2sccc2C1c1ccc(Cl)cc1 (centres undefined)	0.26	-0.25
COc1ccc(C(=O)N2CC(=O)Nc3ccccc32)cc1	8.9	-1.2
CC(=NCCN1CCOCC1)C1=C(O)c2ccccc2C1=O	-3	1.5
Cc1ccc(C(=O)CC(c2cccs2)S(=O)(=O)c2ccccc2)cc1 (centres undefined)	-0.33	0.65
Clc1ccc(-c2cnc(N3CCN(C(c4ccccc4)c4ccccc4)CC3)nc2)cc1	-0.27	nt
O=c1c2ccccc2ncn1CCOc1ccc(CO)cc1	-0.08	-1.1
CCCc1c(C)nc(SCC(=O)C(C)(C)C)nc1OC(=O)N(C)C	0.78	-0.3
CN(C)CCN1CCN(C(=O)OCCCCc2ccc([N+](=O)[O-])cc2)CC1	0.35	nt
Cc1oc2c(CN3CCCCC3)c(O)ccc2c(=O)c1Oc1ccc(Cl)cc1	nt	1.6
COC(=O)[C@@H]1CC(O)CN1S(=O)(=O)c1ccc(C)cc1 (some centres undefined)	nt	1.2
Fc1cc(F)cc(NC(=S)NCCN(C2CCCCC2)C2CCCC2)c1	0.65	1.8
CCOC(=O)c1c(NC(=O)COc2ccccc2)sc2c1CCCC2	0.85	nt
CCC(NC(=O)c1ccccc1NC(=O)C(C)(C)C)C(=O)N1CCCC1 (centres undefined)	nt	0.8
O=C(NCC(=O)c1ccccc1)/C(=C/c1cccs1)c1ccccc1	-0.97	-0.95
Cc1c(N=c2c(=O)c3ccccc3c2=O)c(=O)n(-c2ccccc2)n1C	-0.12	1.8
CCOC(=O)C1=C(N)N2C(=O)C(C)SC2=C(C(=O)OC)C1c1cccc(OC)c1 (centres undefined)	-0.24	1.5
O=C(CN1C(=O)c2cccnc2Oc2ccc(Cl)cc21)NCc1ccccc1	0.24	0.2
OC(C#CCC(O)c1ccccc1)c1ccccc1 (centres undefined)	0.36	-0.8
CCC1CN(C(=O)n2ccnc2)c2ccccc2O1 (centres undefined)	-0.085	0.5
COC(=O)C(Cc1c[nH]c2ccccc12)NC(=O)C(c1ccccc1)c1ccccc1 (centres undefined)	-0.33	nt
CCc1c(C)nc(SCC(=O)Nc2ccc3c(c2)OCCO3)[nH]c1=O	nt	0.9
O=C(O)c1ccc(-c2ccc(C(=O)O)s2)s1	78	-0.4
COc1ccc(-c2nn(-c3ccccc3)cc2/C=N\NC(=O)c2ccncc2)cc1OC	-0.12	nt
O=C(Cn1c(=O)cnc2ccccc21)NCC(F)(F)F	nt	-0.4
NC(=O)Cn1nc(-c2ccc(Cl)cc2)ccc1=O	nt	0
CNc1nc(-c2ccccn2)nc(C)c1Cl	-0.11	-0.9
O=C(Nc1nc2ccc(Cl)cc2s1)C1COc2ccccc2O1 (centres undefined)	0.47	-0.1

Screening results from PubChem.
